Bioassay records (PubChem BioAssay)
Autofluor counter: compound fluorescence in toxin protease inhibitor counterscreen. 360,000 tested, 3.1% active. fluorescence intensity (test concentration not listed). compound autofluorescence counterscreen, microsphere flow cytometry; hits give high values;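 active = at least 3 SD above the mean of all compounds, about 16000 in these data; inconclusive = too few beads counted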;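 note: 100 nL of 1 mM stock went into each well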
Sa ugtP lethal: kills S. aureus RN4220 lacking UgtP. S. aureus RN4220 ugtP deletion, OD600 growth, 16 h; some inactives read as strong as hits. growth inhibition, % (concentration not given with the values). 330,000 tested, 0.54% active. AID 1259309;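 active = z-score under -3 and OD600 up to 0.15 on both plates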;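 note: plate controls were untreated wells for no effect and antibiotic for full effect; wells of about 80 µL received 100 nL stock; the first replicate is given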
Sa RN4220 lethal: S. aureus RN4220 growth inhibition. 330,000 tested, 0.33% active. OD600, 16 h. AID 1259311. inhibition, % (test concentration not listed);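 active = z-score of -3 or lower and OD600 up to 0.18 on both plates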;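 note: plate controls were untreated cells for no effect and reference antibiotic for full effect; stock transfer was 100 nL into about 80 µL; one replicate is shown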
PrP 5UTR inh: suppresses PrP 5' UTR mRNA reporter expression; 340,000 tested, 0.35% active; cell-based PrP 5' UTR mRNA reporter, plate reader; AID 488862; inhibition, % (test concentration not listed);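 active = every replicate at 50% or more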;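 note: 0 = median of the neutral control wells; tested in H4 reporter cells; numbers are from one replicate; inactives centre near -14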
BJeLR viability: kills HRASV12-expressing BJeLR cells. 300,000 tested, 0.17% active. BJeLR (HRASV12) viability, CellTiter-Glo ATP luminescence, 48 h; reference of the scale not given here. inhibition, % (no concentration beside the values). AID 1554;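 active = replicate mean above 50%; inconclusive = above 50% but judged a plate artefact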;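 note: 50 nL library stock added to about 25 µL; numbers are from one replicate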
Mtb hypoxia rep: Mtb hypoxia fluorescent reporter inhibition; M. tuberculosis hypoxia-regulated fluorescent reporter, fluorescence; fluorescence inhibition, % (concentration not given with the values); 300,000 tested, 0.1% active;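 active = 35 to 45% if threefold the growth effect, above 45% if 1.5-fold the growth effect; inactive = the rest, general growth blockers included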;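 note: wells of about 50 µL received 100 nL stock; 0% = vehicle wells and 100% = reference inhibitor wells; whole bacteria with a GFP reporter of the hypoxia response; strong numbers were not always called active; many hits fall short of the cut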
Mtb hypoxia rep growth: also measured in Mtb hypoxia rep; calls as there; growth inhibition, %; measured here: M. tuberculosis growth (absorbance);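 0% = vehicle and 100% = reference antibiotic; read after six days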
An asterisk follows results filed as active; ? = inconclusive; nt = no result given.

canonical_smiles	Autofluor counter	Sa ugtP lethal	Sa RN4220 lethal	PrP 5UTR inh	BJeLR viability	Mtb hypoxia rep	Mtb hypoxia rep growth
Cc1ccc(OCCSc2nc3ccccc3n2CC(=O)O)c(C(C)C)c1	3717	11	2.9	-29	-4	-3	0
C/C(N)=C(/C#N)C(=O)CSc1nc2ccccc2c(=O)n1CCCOC(C)C	2105	-5	-1.3	-11	-5	6	-7
C=CCN1C(=O)/C(=C\c2ccc(Oc3nc(N4CCOCC4)nc(N4CCOCC4)n3)c(OC)c2)SC1=S	4239	2	2.9	-34	-4	3	7
COc1ccc(NC(=O)CSc2n[nH]c(=O)n2C2CC2)cc1Cl	5165	8	2.9	5	nt	2	3
O=C(NCC1CCCO1)c1cc(S(=O)(=O)Nc2ccc(Br)cc2)ccc1Cl (stereo unspecified)	4064	7	6.6	-1	0	6	2
O=C(OCC(=O)N1CCc2ccccc21)c1c2c(nc3ccccc13)CCCC2	2250	-6	-8.0	-22	-17	-7	-3
COc1ccc(/C=N/NC(=O)CN2CCCc3ccccc32)c(OC)c1	5751	nt	nt	-22	2	nt	nt
CCOc1cccc(C(=O)Nc2nnc(-c3cccs3)s2)c1	2653	-7	2.0	-47	6	nt	nt
O=C(Nc1ccc(Nc2ccccc2)cc1)c1ccc(Br)o1	16067	7	-2.9	-37	-4	-4	3
CC(OC(=O)CSc1ccc(F)cc1)C(=O)NC1(C#N)CCCCC1 (stereo unspecified)	5317	-3	-0.2	-13	-5	3	3
Cc1ccc(SCc2cc(=O)[nH]c(SCC(=O)Nc3cc(Cl)ccc3Cl)n2)cc1	4729	-19	0.5	-11	-15	10	2
O=C(c1cc(-c2ccccc2)nc2ccccc12)N1CCc2ccccc2C1	9844	-8	3.6	-23	-9	5	6
COc1ccc(C2Nc3ccccc3C(=O)N2Cc2ccco2)cc1COc1ccc([N+](=O)[O-])cc1 (stereo unspecified)	2413	1	-2.7	-5	4	nt	nt
C=CCN1C(=O)c2ccccc2C1(O)Cc1ccccc1 (stereo unspecified)	3426	5	4.7	-17	1	2	4
COc1cc(Cl)cc(C2NC(=O)NC(C)=C2C(=O)NCc2ccccc2)c1O (stereo unspecified)	6248	7	4.2	-10	-4	11	7
Cc1cccc(NC(=O)c2ccc(NC(=O)CC3SC(N4CCCC4)=NC3=O)cc2)n1 (stereo unspecified)	?	nt	nt	-37	-5	nt	nt
Cc1c(C(=O)OCCOc2ccccc2)[nH]c2c1C(=O)CCC2	2109	-10	5.4	-1	9	nt	nt
COc1cc2oc3ccccc3c2cc1N(CC(=O)N(C)C)S(=O)(=O)c1ccc(C)cc1	2613	-1	-0.6	-15	1	nt	nt
Cc1c[n+](C)ccc1CC1C([N+](=O)[O-])=C[N-]c2ncnn21 (stereo unspecified)	4046	11	7.3	-19	nt	19	2
CC(C)(C)OC(=O)NCCCCC(NC(=O)c1[nH]cnc1C(=O)Nc1ccc(Cl)cc1)C(=O)OC(C)(C)C (stereo unspecified)	nt	-7	-7.0	nt	nt	-9	-3

Overlap with the part before: 3 compounds; new compounds follow.
canonical_smiles	Autofluor counter	Sa ugtP lethal	Sa RN4220 lethal	PrP 5UTR inh	BJeLR viability	Mtb hypoxia rep	Mtb hypoxia rep growth
COc1cc2oc3ccccc3c2cc1N(CC(=O)N(C)C)S(=O)(=O)c1ccc(C)cc1	2613	-1	-0.6	-15	1	nt	nt
Cc1c[n+](C)ccc1CC1C([N+](=O)[O-])=C[N-]c2ncnn21 (stereo unspecified)	4046	11	7.3	-19	nt	19	2
CC(C)(C)OC(=O)NCCCCC(NC(=O)c1[nH]cnc1C(=O)Nc1ccc(Cl)cc1)C(=O)OC(C)(C)C (stereo unspecified)	nt	-7	-7.0	nt	nt	-9	-3
Cc1c(CN(C)C(=O)/C=C/c2ccc([N+](=O)[O-])cc2)cnn1C	2292	11	4.6	-3	-10	4	12
O=C(CSc1nc(N2CCCCC2)nc(N2CCCCC2)n1)Nc1nccs1	4582	6	0.7	-8	-4	nt	nt
Cc1cc(C)c(NC(=S)NCCO)c(C)c1	6469	5	2.7	-12	5	1	0
CCOc1ccc(CNC(=O)CCn2c(=O)oc3ccccc32)cc1OC	10295	-2	1.7	-10	0	8	12
CC(CN1CCN(C)CC1)OC(=O)c1ccccc1 (stereo unspecified)	2969	-4	3.4	-2	9	2	10
CSc1nc(-c2ccccc2)nc(N2CCOCC2)c1C(C)=O	4604	17	2.3	-25	2	7	6
Cc1ccc(C)c(S(=O)(=O)N2CCN(C(=O)CSc3ccccc3F)CC2)c1	6543	9	7.8	-21	-9	10	7
O=C(O)c1ccc(-c2noc(-c3cccc(C(F)(F)F)c3)n2)cc1	3940	4	1.8	-41	-3	1	6
CC(C)C[C@H](NC(=O)OC(C)(C)C)c1nnc(SCC(=O)Nc2ccc(Br)cc2)o1	6145	-20	17	-6	3	-5	-13
S=C(c1ccc(Cl)cc1)N1CCN(Cc2ccccc2)CC1	4627	-2	-1.2	-45	-7	5	10
COCCn1cnnc1SCC(=O)Nc1cccc(S(=O)(=O)N(C)c2ccccc2)c1	4675	-10	-1.5	-23	-3	5	-2
Cc1n[nH]c(=O)nc1NN=Cc1ccco1	nt	6	1.6	nt	nt	-2	-5
COc1ccc(C2CC(=O)C=C(c3cc(C)ccc3F)C2)cc1 (stereo unspecified)	nt	8	4.4	nt	nt	13	2
O=C1c2ccccc2C(=O)N1C1(C(=O)NC2(C(=O)O)CCCC2)CCCC1	4597	-2	-1.3	-21	nt	8	12
CC1=CC(=O)CC(C)(C)C1(O)/C=C/C(C)=C/C(=O)O (stereo unspecified)	5812	-4	0.4	-10	-10	nt	nt
CCC(C)NCCOCCOc1ccccc1-c1ccccc1 (stereo unspecified)	23087*	-1	4.1	-2	-9	10	5
CCC(Cc1ccccc1)NC(=O)C1CCN(S(=O)(=O)c2ccc3c(c2)CC(C)N3C(C)=O)CC1 (stereo unspecified)	4278	5	-1.7	-6	3	2	5
Cc1nnc(-c2cnn(C)c2N)n1Cc1ccccc1F	4161	4	2.6	-29	3	nt	nt
CC1(C)CC2CC(C)(CN2C(=S)Nc2ccccc2F)C1 (stereo unspecified)	4177	3	2.2	7	-2	-6	5
Cc1c(NC(=O)c2cc(S(=O)(=O)N3CCCCC3)ccc2Cl)c(=O)n(-c2ccccc2)n1C	2944	8	6.0	-13	nt	14	7

(list continues)
canonical_smiles	Autofluor counter	Sa ugtP lethal	Sa RN4220 lethal	PrP 5UTR inh	BJeLR viability	Mtb hypoxia rep	Mtb hypoxia rep growth
N#Cc1ccccc1NC(=O)COC(=O)C1CCN(C(=O)c2ccc(Cl)cc2)CC1	3373	-1	-1.4	-31	nt	6	6
CCn1c(SCc2ccccc2)nc2c(c1=O)SCC2	3216	4	1.1	-7	-5	1	6
CC(C)Cn1c(N)c(C(=O)COC(=O)c2cc(-c3ccccc3)nc3ccccc23)c(=O)n(C)c1=O	3708	-17	3.1	5	-1	-4	5
Cc1ccccc1C(CC(=O)c1cccs1)C(C#N)C#N (stereo unspecified)	2050	4	3.3	-8	-6	8	12
CC(C)[C@H](NC(=O)C1CCC(CNC(=O)[C@@H]2CCCN2C(=O)OC(C)(C)C)CC1)C(=O)O (stereo partly specified)	3702	3	2.9	-14	21	0	5
CCOc1ccc(C=NNc2nc(=O)[nH]nc2C)cc1OC	nt	2	3.0	nt	nt	15	9
Cc1cc2cc(CNC(=O)Nc3ccccc3)ccc2n1C	2200	18	7.2	-26	5	-2	0
C[C@@]12CCC=C[C@H]1[C@H](c1ccc3ccccc3c1Br)N(Cc1ccccc1)C2=O	2883	nt	nt	-10	-7	nt	nt
CCN(CC)c1ccc(CNc2ccc3c(c2)ncn3CC)cc1	nt	3	2.1	nt	2	17	9
COc1ccc(Nc2cccc3ccccc23)cc1	3462	11	8.4	-43	0	0	-1
O=C(O)CCCn1c(O)c(C=C2N=c3ccccc3=N2)sc1=S	4653	4	4.8	-28	-17	21	6
COCCNC(=O)C(c1ccc(O)cc1)N(Cc1ccco1)C(=O)CCC(=O)Nc1nccs1 (stereo unspecified)	2802	-4	-0.5	-20	-1	nt	nt
CCN1C(=O)c2cccc3c(S(=O)(=O)Nc4ccccc4OC)ccc1c23	2415	1	11	-5	-2	1	7
O=C(Nc1cc2c3c(c1)C1CCCC1CN3CC1CCCC21)c1ccc([N+](=O)[O-])cc1 (stereo unspecified)	8627	-18	6.3	-15	1	-101	-31
CC(C)CNC(=O)c1ccccc1NC(=O)/C=C/c1cccc([N+](=O)[O-])c1	2273	-10	7.0	-7	-15	-7	2
COc1ccc(O)c(C=Nc2sc(C)c(C)c2C#N)c1	nt	-1	2.1	nt	nt	13	4
NC(=O)C1CCN(C(=O)C2c3ccccc3C(=O)N3CCc4ccccc4C23)CC1 (stereo unspecified)	11386	5	0.9	-17	14	7	1
CC(C)(C)c1nnc(NC(=O)c2ccc(Cl)nc2)s1	2418	-6	6.9	-40	-2	6	9
O=C(CC1SC(N2CCOCC2)=NC1=O)Nc1cccc(C(F)(F)F)c1 (stereo unspecified)	7674	-5	-0.5	-25	nt	6	7
COC(CNC(=O)[C@H](Cc1ccccc1)N1Cc2ccccc2C1=O)OC	3705	9	-1.5	-6	10	5	13

Going on with the list.
canonical_smiles	Autofluor counter	Sa ugtP lethal	Sa RN4220 lethal	PrP 5UTR inh	BJeLR viability	Mtb hypoxia rep	Mtb hypoxia rep growth
COC(=O)CN1C(=O)C2C(C)C3=C4C(CC(C(=O)OC)=CC(C(=O)OC)C4[C@@](C)(NC(=O)c4ccccc4)C3=O)C2C1=O (stereo partly specified)	nt	4	2.2	nt	nt	17	1
COc1cccc(CN2C(=O)c3ccccc3S2(=O)=O)c1	4322	0	2.4	5	-6	-4	0
COc1cc(SC)ccc1C(=O)NCCc1c[nH]c2ccccc12	4136	5	9.0	-11	-4	12	5
COC1=C/C(=C/c2c(N)n3cc(C)sc3nc2=O)C=CC1=O	4949	5	3.9	-9	-11	-7	-10
CC1CCN(C(=O)c2[nH]cnc2C(=O)NCc2ccccc2)CC1	4307	6	5.6	-12	nt	1	4
COc1ccc(C2c3c(oc4ccc(Cl)cc4c3=O)C(=O)N2CCN2CCOCC2)cc1 (stereo unspecified)	4577	0	2.5	-13	0	6	2
O=C(Nc1ccc(NC(=O)c2ccccc2)nc1)c1ccncc1	2222	3	-2.7	-27	6	16	1
O=C(NC(=S)Nc1ccc(N2CCN(C(=O)c3ccccc3)CC2)cc1)c1cccs1	4518	nt	nt	-3	-6	nt	nt
CCOc1ccc(C2C(C(=O)c3ccc(C)o3)=C(O)C(=O)N2Cc2cccnc2)cc1 (stereo unspecified)	5720	3	0.7	-7	5	9	24
CCN1C(=O)C(CC(=O)Nc2ccc(Br)cc2)N(CCCc2ccccc2)C1=S (stereo unspecified)	3408	5	30	2	-2	4	-1
Cc1cc(C)cc(OCC(=O)OCC(=O)NC2CC2)c1	4236	1	3.5	-11	nt	11	7
O=C(OCc1ccccc1F)c1ccc2c(c1)-c1ccccc1C2=O	19102*	29	4.3	-81	5	2	6
O=C(CCn1c(=O)oc2ccc(Cl)cc21)N1CCN(Cc2ccccc2)CC1	3515	2	3.6	-10	8	-8	-3
CCCCCCc1ccc(N2CC(CCCCC)C(CC(=O)NCc3ccccc3)C2=O)cc1 (stereo unspecified)	nt	-25	-4.9	nt	nt	8	7
COc1ccc(NC(=O)Nc2cccc3c2O[C@H](CN(C)C(=O)Nc2ccccc2)[C@@H](C)CN([C@H](C)CO)C3=O)cc1	4644	-1	-13	-20	nt	5	15
CN(C)c1cc(Cl)c2nonc2c1N	nt	-2	2.6	5	5	-13	-1
O=C(/C=C/c1ccco1)N1CCN(c2ncccn2)CC1	2087	2	0.1	-27	-2	9	3
O=S(=O)(N=Cc1ccccc1O)c1cccs1	nt	1	2.6	nt	nt	1	5
COc1cccc(C(=O)NCC(=O)N/N=C/c2cn[nH]c2-c2ccccc2)c1	1994	nt	nt	-24	5	nt	nt
COc1cc(Cn2c(=O)oc3ccc(C)cc32)ccc1OC(C)C	9548	-1	6.2	-25	2	0	8
CCC1CN(C(=O)N2CCC(C(=O)NCc3ccc(OC)cc3OC)CC2)c2ccccc2O1 (stereo unspecified)	5486	-2	-2.6	8	-10	-15	-1

Rows were taken by chance. About 3.9% of those tested had a hit in this group.
